High-throughput results: PubChem, National Center for Advancing Translational Sciences (NCATS)
ClpP mod = qHTS Assay for Activators of ClpP; purified B. subtilis ClpP, FRET peptide cleavage, 20 min; Potency, µM (doses to about 57.5 µM), for inactives: at the highest dose activity change, negative = active; 340,000 tested, 1.9% active; ATP-dependent Clp protease proteolytic subunit (Bacillus subtilis (strain 168)), P80244; active = well fitted falling curve with a large enough effect; inconclusive = small, poorly fitted or top-dose-only effect; inactive = no such curve, though single readings can be large or run the other way; also: the source files actives as falling curves though it sought activators and does not explain the sign; nearly all actives have a fitted effect of over 65% in size; many hits overshoot -100%
Target sequence (P80244 whole entry, looked up): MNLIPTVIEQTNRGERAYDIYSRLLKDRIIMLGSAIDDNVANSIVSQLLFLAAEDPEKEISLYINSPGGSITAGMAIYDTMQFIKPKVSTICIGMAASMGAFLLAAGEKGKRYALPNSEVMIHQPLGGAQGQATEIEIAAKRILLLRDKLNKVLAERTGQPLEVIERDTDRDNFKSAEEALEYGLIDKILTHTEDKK
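Buffer: 100 mM Tris/HCl pH8, 100 mM KCl, 0.05% low protease BSA, 2.5% glycerol, 0.01% Tween-20. ClpP 10 microg/mL final; 20 min RT; delta FRET normalized to ADEP and DMSO controls.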
Starred values were filed as active, the others as inactive; ? = inconclusive. Potency is read from the fitted curve at half-maximal effect. An excerpt; rates above refer to the full screens.

SMILES | ClpP mod
COc1cc(CN(C(=O)c2ccccc2F)C2CCS(=O)(=O)C2)cc(OC)c1OC (centres undefined) | -2.5%
CCc1noc(-c2ccc(NC(C)c3ccccc3)c([N+](=O)[O-])c2)n1 (centres undefined) | -0.1%
O=C1c2ccccc2C(c2nnnn2-c2ccc3c(c2)OCCO3)N1CCCN1CCOCC1 (centres undefined) | -1.6%
CCCCNC(=O)c1c(-c2ccccc2)c(-c2ccccc2)nn(C)c1=O | -0.2%
CCOC(=O)c1c(NC(=O)CSc2cn(CCNC(=O)c3c(F)cccc3F)c3ccccc23)sc2c1CCC2 | -3.8%
CCOC(=O)c1nnc2c(-c3ccc(Cl)cc3)c(C)nn2c1C | 0.2%
Cc1ccc(-c2nc(C)c(CCNC(=O)c3ccco3)s2)cc1 | 3.3%
COc1ccc(C(=O)CCC(=O)Nc2cc(C)ccc2C)cc1 | -3.4%
COc1cc(Cl)c(S(=O)(=O)NCCc2c(C)[nH]c3c(C)cccc23)cc1Cl | -0.5%
COc1ccc(CCNC(=O)c2cnn(-c3ccc(F)cc3)c2C2CCN(C(=O)OC(C)(C)C)CC2)cc1OC | -1.6%
CCOC(=O)Cn1c(=O)n(-c2ccc(Cl)cc2)c2nc(-c3ccc(Cl)cc3)nc(C(N)=O)c21 | ?
CCOc1ccccc1CNS(=O)(=O)c1ccc(-c2coc(C)n2)cc1 | 1.6%
O=C(C[n+]1cccc(Br)c1)c1cc(Cl)ccc1Cl | -0.1%
CCC(C)CN1C(=O)CN(S(C)(=O)=O)CC1(C)C(=O)NC(C)C (centres undefined) | -1.4%
CCCS(=O)(=O)N1CC(=O)N(c2ccccc2C)C(C)(C(=O)NC2CCCCC2)C1 (centres undefined) | 2.2%
CCOc1ccc(C2C(=O)N(C3CCCCCC3)CC(=O)N2CCc2ccc(OC)c(OC)c2)cc1OC (centres undefined) | 1.4%
Cc1cccc(NC(=O)Cn2c(=O)oc3cc(S(=O)(=O)NCc4ccccc4)ccc32)c1 | 2.6%
O=C(NCc1ccccc1)C1c2ccccc2OCC(=O)N1Cc1ccco1 (centres undefined) | -0.8%
CCOC(=O)[C@]12CCC=C1N(Cc1ccc3c(c1)OCO3)C(=O)[C@H](CC(=O)N1CCC(c3ccccc3)CC1)C2 | 2.9%
Cc1cccc(N2CCN(C(=O)Cn3cnc4sc(C)c(S(=O)(=O)N5CCN(c6ncccn6)CC5)c4c3=O)CC2C)c1 (centres undefined) | -6.2%
Cc1ccc(C2C=C(c3ccc(F)cc3)Nc3nc(CCCO)nn32)cc1 (centres undefined) | 4.2%
Cc1cccc(NC(=O)c2ccc(F)c(S(=O)(=O)NCc3ccc4c(c3)OCO4)c2)c1 | 0.1%
Cc1noc(-c2ccc(-c3noc(-c4ccc(C(F)(F)F)cc4)n3)cc2)n1 | -3.0%
CCOc1ccccc1Nc1ncnc2c1c(-c1ccccc1)cn2-c1ccc(OC)cc1 | 4.3%
CCOc1ccc(NC(=O)C(Cc2ccccc2)NS(=O)(=O)c2ccc3c(c2)oc(=O)n3C)cc1 (centres undefined) | 1.1%
COc1ccc(-c2nc3ccccc3o2)cc1NC(=O)c1ccc(N2CCC(C)CC2)c([N+](=O)[O-])c1 | -5.8%
COC(=O)C1CCN(C(c2ccccc2Cl)c2sc3nc(-c4ccco4)nn3c2O)CC1 (centres undefined) | -1.3%
Cc1ccc2nc(CN3CCN(S(=O)(=O)c4ccc(C)c(C)c4)CC3)oc2c1 | 0.0%
CCOC(=O)c1c(C)[nH]c(C)c1S(=O)(=O)N1CCCC(C(=O)NCc2cccc(C)c2)C1 (centres undefined) | -1.3%
CNC(=O)c1c(NC(=O)c2nc(SCc3ccc(C)cc3)ncc2Cl)sc2c1CCCC2 | -1.6%
CCN(Cc1ccccc1)Cc1c(O)ccc2oc(C)c(C(=O)Nc3ccc(C)cc3C)c12 | ?
CCN1CCN(C(c2cccc(F)c2)c2c(O)cc(C)n(Cc3ccco3)c2=O)CC1 (centres undefined) | -3.1%
Cc1cc(C(=O)NCc2ccccc2C)c2c(C)nn(-c3cccc(F)c3)c2n1 | 4.4%
O=C(C1COc2ccccc2O1)N1CCN(c2nc3ccc(F)cc3s2)CC1 (centres undefined) | -4.5%
CCOc1ccccc1NC(=O)C(NS(=O)(=O)c1cccc2nsnc12)c1ccccc1 (centres undefined) | -3.9%
Cc1cc(Nc2cccc(C(F)(F)F)c2)nc2ccc(NC(=O)c3cccnc3)cc12 | -12%
O=C(Nc1cccc(Cl)c1)c1cc(-c2ccc3c(c2)OCO3)on1 | 4.9%
Cc1nc2nc(SCC(=O)Nc3cccc(Cl)c3)nn2c(C)c1Cc1ccccc1 | ?
Cc1ccc2c(c1)c1c(c(=O)n(-c3ccccc3)c(=O)n1Cc1ccccc1C)n2C | ?
Cc1ccc(CNC(=O)c2ccccc2NC(=O)c2nsc3ccccc23)cc1 | -18%

Nothing new here: 14 of the compounds above.
SMILES | ClpP mod
COc1cc(CN(C(=O)c2ccccc2F)C2CCS(=O)(=O)C2)cc(OC)c1OC (centres undefined) | -2.5%
CCc1noc(-c2ccc(NC(C)c3ccccc3)c([N+](=O)[O-])c2)n1 (centres undefined) | -0.1%
O=C1c2ccccc2C(c2nnnn2-c2ccc3c(c2)OCCO3)N1CCCN1CCOCC1 (centres undefined) | -1.6%
CCCCNC(=O)c1c(-c2ccccc2)c(-c2ccccc2)nn(C)c1=O | -0.2%
CCOC(=O)c1c(NC(=O)CSc2cn(CCNC(=O)c3c(F)cccc3F)c3ccccc23)sc2c1CCC2 | -3.8%
CCOC(=O)c1nnc2c(-c3ccc(Cl)cc3)c(C)nn2c1C | 0.2%
Cc1ccc(-c2nc(C)c(CCNC(=O)c3ccco3)s2)cc1 | 3.3%
COc1ccc(C(=O)CCC(=O)Nc2cc(C)ccc2C)cc1 | -3.4%
COc1cc(Cl)c(S(=O)(=O)NCCc2c(C)[nH]c3c(C)cccc23)cc1Cl | -0.5%
COc1ccc(CCNC(=O)c2cnn(-c3ccc(F)cc3)c2C2CCN(C(=O)OC(C)(C)C)CC2)cc1OC | -1.6%
CCOC(=O)Cn1c(=O)n(-c2ccc(Cl)cc2)c2nc(-c3ccc(Cl)cc3)nc(C(N)=O)c21 | ?
CCOc1ccccc1CNS(=O)(=O)c1ccc(-c2coc(C)n2)cc1 | 1.6%
O=C(C[n+]1cccc(Br)c1)c1cc(Cl)ccc1Cl | -0.1%
CCC(C)CN1C(=O)CN(S(C)(=O)=O)CC1(C)C(=O)NC(C)C (centres undefined) | -1.4%

Additional entries
SMILES | ClpP mod
COc1cc(-c2nnc(SCC(=O)Oc3ccccc3)o2)cc(OC)c1OC | 3.9%
COc1ccc(C(CNC(=O)c2ccc(C)cc2)N2CCOCC2)cc1 (centres undefined) | 1.0%
Cc1ccc(OCc2cc(=O)n3ccsc3n2)c(NC(=O)c2ccco2)c1 | ?
CCCCOC(=O)c1c(N)n(-c2ccc(OC)cc2OC)c2nc3ccccc3nc12 | -14%
CC(=O)c1cccc(NCc2ccccc2-c2nnc(-c3ccccc3)o2)c1 | 214%
CCc1ccc(C2=CC(c3cccc(C)c3)n3c(nc4ccccc43)N2)cc1 (centres undefined) | -1.9%
Cc1ccc(CNS(=O)(=O)c2ccc3[nH]c4c(c3c2)CCCC4)cc1 | -15%
CCc1ccccc1Nc1cc(C(=O)NCc2ccc(C)cc2)c2ccccc2n1 | ?
COc1ccc(N2CCN(C(=O)c3cc4c(-c5ccccc5F)nn(C)c4s3)CC2)cc1 | -4.5%
CCOc1ccc(C2CC(=O)N(c3cccc(F)c3)C3=C2C(=O)OC3)cc1 (centres undefined) | -2.3%
COc1cccc(Cn2c(-c3nonc3NC(C)=O)nc3ccccc32)c1 | -19%
CCCOc1ccc(Oc2nc(NC)nc(N3CCOCC3)n2)nn1 | -2.9%
CCOc1ccc2nc(N(Cc3cccnc3)C(C)=O)sc2c1 | 1.4%
COc1cccc(C2c3c(-c4ccccc4O)n[nH]c3C(=O)N2CCc2ccc(OC)c(OC)c2)c1 (centres undefined) | -1.7%
COc1ccc(-c2nc3c(Cl)cc(C(F)(F)F)cn3c2Cc2ccsc2)cc1OC | 5.1%
Cc1ccc(CNC(=O)c2ccc(N3CCCC3)c(NC(=O)Nc3ccc(C)cc3)c2)cc1 | -5.2%
Cc1cn2c(=O)cc(COc3ccc(NC(=O)c4ccc(C(C)(C)C)cc4)cc3)nc2s1 | -1.7%
CCOc1ccc(-c2nc(C(N)=O)c3c(n2)n(-c2ccc4c(c2)OCO4)c(=O)n3CC)cc1 | -12%
O=c1nc2c(-c3ccc(F)cc3Cl)n[nH]n2c2ccccc12 | 4.6%
COc1ccccc1NC(=O)CN1C(=O)c2cccc3cccc1c23 | 7.4%
Cc1cc2c(cc1C)N[C@]1(C[C@H]3CCCC(=O)N4CC[C@@H](C1)[C@@H]34)C(=NCc1ccccc1)N2 | 2.1%
COCCN1C(=O)COc2ccccc2C1C(=O)NC1CCCCC1 (centres undefined) | 0.0%
CCSc1nc2n(n1)C(c1ccc(CC)cc1)C(C(=O)Nc1ccccc1OC)=C(C)N2 (centres undefined) | 7.6%
CCN(CC)S(=O)(=O)c1ccc(NC(=O)CN(c2ccccc2)S(=O)(=O)N(C)C)cc1 | 1.4%
Cc1ccc(CNC(=O)c2sc3nc(C)cc(C)c3c2-n2cccc2)cc1 | -3.1%
CC(C)(C)CC(=O)NCC(c1ccc2c(c1)OCO2)N1CCOCC1 (centres undefined) | -2.2%
O=C(CSc1cn(CCNC(=O)c2cccc(C(F)(F)F)c2)c2ccccc12)Nc1ccc2c(c1)OCCO2 | -1.3%
CCOc1cc(/C=C(\C#N)C(=O)Nc2ccc(OC)cc2)ccc1OCc1cc(=O)n2nc(CC)sc2n1 | 2.0%
CCc1ccc(NC(=O)CN2C(=O)C3CCCN3c3ccc(S(=O)(=O)N(CC)CC)cc32)cc1 (centres undefined) | -6.2%
Cc1ccc(NC(=O)Cn2cnc3c2c(=O)n(C)c(=O)n3C)cc1C | -0.4%
CCOc1cc(-c2nnc(SCC(=O)NC3CCCC3)nc2-c2ccc(OC)c(OCC)c2)ccc1OC | -5.8%
Cc1ccc(Cn2c(C(=O)O)c(CNCCc3cccs3)c3ccc(C)cc32)cc1 | -4.8%
Cc1ccc(Cl)cc1N1CCN(C(=O)c2ccc3c(c2)N(Cc2ccccc2)CCS3)CC1 | ?
CCOC(=O)c1ccc(NC(=O)C(Cc2ccccc2)N2Cc3ccccc3C2=O)cc1 (centres undefined) | -5.2%
COc1ccc(CCN2C(=O)N(c3cccc(OC)c3)C(=O)C2CC(=O)Nc2ccccc2)cc1 (centres undefined) | 0.8%
Cc1ccc2c(=O)cc(C(=O)N(Cc3ccc(C(C)(C)C)cc3)C3CCS(=O)(=O)C3)oc2c1 (centres undefined) | 2.3%
CC(C)OCCCNC(=O)Cc1ccc(NC(=O)N2CCCCc3ccccc32)cc1 | -0.7%
Cc1ccc(S(=O)(=O)NCCc2csc(-c3cccc(F)c3)n2)cc1 | -19%
CCOC(=O)c1ccc(CN(Cc2ccc(F)cc2)S(=O)(=O)c2ccc(F)c(C(=O)Nc3cc(Cl)ccc3OC)c2)cc1 | -20%
COc1ccc(NC(=O)c2oc3ccccc3c2NC(=O)c2cc3ccccc3o2)c(OC)c1 | ?
CCCCC[C@H](C)N1C[C@H](COCc2ccccc2)Oc2cc(N3CCC[C@@H]3CO)ccc2S1(=O)=O | ?
Cc1ccc(Cl)cc1N1CCN(C(=O)C2CCN(S(=O)(=O)c3ccc4c(c3)oc(=O)n4C)CC2)CC1 | -2.9%
COc1cccc(N2CCN(C(=O)Cn3ncc4c(=O)oc5ccccc5c43)CC2)c1 | -1.6%
CCOc1ccc(S(=O)(=O)Nc2ccc3c(c2)CCCN3C(=O)c2cccs2)cc1 | 0.2%
COc1ccc(CCN2C(=O)COc3ccccc3C2C(=O)NC(C)(C)C)cc1OC (centres undefined) | -1.0%
CC1=C(C(=O)Nc2ccccc2Cl)C(c2cccs2)n2ncnc2N1 (centres undefined) | -3.6%
CC1=C(C(=O)OC2CCCC2)C(c2cccc(Cl)c2Cl)CC(=O)N1 (centres undefined) | 1.8%
O=C(Nc1ccc2oc(-c3ccc(O)c(Br)c3)nc2c1)c1cc2ccccc2o1 | 1.1%
CC(=O)Nc1ccc(Nc2nc(Nc3ccc(Cl)cc3)nc(N3CCOCC3)n2)cc1 | -14%
CCN(C(=O)c1cc(S(=O)(=O)N2CCOCC2)cn1C)c1ccc(OC)cc1 | -2.2%
O=C(C[n+]1cccc(Br)c1)c1cccc([N+](=O)[O-])c1 | -0.5%
COc1ccc(C)cc1NC(=O)C(NS(=O)(=O)c1cccs1)c1ccccc1 (centres undefined) | 11%
Cc1nc(-c2ccc(S(=O)(=O)Nc3cc(Cl)ccc3C)cc2)co1 | 2.1%
COc1cccc(CNC(=O)Cn2c(SCC(=O)Nc3ccc(F)cc3)nc3ccccc32)c1 | -0.2%
CCCN1C(=O)C2(c3ccccc31)c1c(oc3ccccc3c1=O)C(=O)N2CCCOC(C)C (centres undefined) | -3.4%
Cc1c(-c2cccc(NC(=O)Nc3ccccc3)c2)nc2ncccn12 | 4.6%
CC(C)C[C@H]1CNC(=O)C(=O)N1C[C@@H]1CCCN1C[C@H](Cc1ccc(O)cc1)N1C[C@H](Cc2ccccc2)N(CC2CCCCCC2)C(=O)C1=O | 1.2%
O=C(CSc1nnc(-c2ccc(Cl)cc2)c(-c2ccc(Cl)cc2)n1)NC1CCCC1 | -0.4%
Cc1oc(C)c2c(=O)cc(-c3ccc4c(c3)OCO4)cc(OC(=O)c3ccccc3Br)c12 | 0.9%
CC(C)Cn1cc(NC(=O)NCc2cccc(Cl)c2)c2ccccc2c1=O | 3.9%
Cc1cccc(/C=C(\C#N)c2nc3ccccc3c(=O)[nH]2)c1 | -1.4%
